Yeast UUG start: yeast start codon fidelity modulation; activity score, % at 18.7 µM; S. cerevisiae UUG-firefly luciferase reporter, luminescence/redox ratio; hit rate 0.13% among 350,000;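 active = replicate mean at a twofold rise or more, about +100% in these data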;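 note: firefly luciferase made from a UUG start codon reports start codon fidelity; reporter light over untreated wells divided by growth signal over untreated wells; some hits fall short of that in this replicate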
An asterisk follows results filed as active.

#	Molecule	Yeast UUG start
1	COc1ccc(C#Cc2ccc3c(c2)[C@@H]2[C@@H](CCN2C(C)=O)[C@H](CO)N3C)cc1	-3
2	CCCC(=O)Nc1ccc2c(c1)C(=O)N(C)C[C@H](OC)[C@@H](C)CN(C(=O)c1cnccn1)[C@H](C)CO2	6
3	O=C(C[C@@H]1CC[C@H]2[C@@H](COC[C@@H](O)CN2Cc2ccccc2F)O1)NCc1ccccc1F	-5
4	CNC[C@H]1Oc2c(NC(=O)Nc3ccccc3)cccc2C(=O)N([C@H](C)CO)C[C@H]1C	14
5	Cc1ccc(S(=O)(=O)N(C)C[C@@H]2Oc3ccc(NC(=O)NC4CCCCC4)cc3CC(=O)N([C@H](C)CO)C[C@@H]2C)cc1	12
6	O=C(C[C@@H]1C[C@H]2c3cc(NC(=O)CC4CC4)ccc3O[C@H]2[C@H](CO)O1)NCc1cccc(F)c1	28
7	COc1ccc(CN(C)C[C@@H]2Oc3ccc(NS(=O)(=O)c4cn(C)cn4)cc3CC(=O)N([C@H](C)CO)C[C@H]2C)cc1	15
8	C/C=C/c1ccc([C@@H]2[C@@H](CO)N(C(C)=O)[C@@H]2CN(C)C(=O)c2ccccn2)cc1	2
9	COc1ccc(S(=O)(=O)N(C)C[C@H]2OCc3ccccc3-c3ccccc3C(=O)N([C@@H](C)CO)C[C@@H]2C)cc1	5
10	C[C@@H]1CN([C@H](C)CO)C(=O)c2cccc(NC(=O)C3CCOCC3)c2O[C@@H]1CN(C)S(=O)(=O)c1cccs1	3
11	CCCC(=O)Nc1ccc2c(c1)C(=O)N(C)[C@@H]1CC[C@@H](CC(=O)NCc3ccccc3Cl)O[C@@H]1CO2	17
12	CO[C@H]1CN(C)C(=O)c2cc(NC(=O)c3cnccn3)ccc2OC[C@H](C)N(CCc2ccccc2)C[C@@H]1C	-5

Reprinted from the part before: 2 compounds, followed by the next part.
#	Molecule	Yeast UUG start
11	CCCC(=O)Nc1ccc2c(c1)C(=O)N(C)[C@@H]1CC[C@@H](CC(=O)NCc3ccccc3Cl)O[C@@H]1CO2	17
12	CO[C@H]1CN(C)C(=O)c2cc(NC(=O)c3cnccn3)ccc2OC[C@H](C)N(CCc2ccccc2)C[C@@H]1C	-5
13	CO[C@@H]1CN(C)C(=O)c2ccc(NC(=O)C3CCC3)cc2OC[C@H](C)N(Cc2ccncc2)C[C@@H]1C	69
14	COc1ccc(NC(=O)Nc2ccc3c(c2)[C@H]2C[C@H](CC(=O)N(C)C)O[C@@H](CO)[C@H]2O3)cc1	-13
15	O=C(C[C@@H]1CC[C@@H]2[C@H](COC[C@H](O)CN2C(=O)c2ccccc2F)O1)N1CCCCC1	-2
16	C[C@H](O)C#Cc1ccc([C@@H]2[C@@H](CO)N3CCCCN(CC4CCOCC4)C[C@@H]23)cc1	20
17	C[C@@H]1CN([C@@H](C)CO)C(=O)CCCn2nncc2CO[C@@H]1CN(C)C(=O)Nc1cccc(F)c1	-11
18	CCCNC(=O)C[C@@H]1C[C@H]2c3cc(NC(=O)CN(C)C)ccc3O[C@H]2[C@H](CO)O1	95
19	CCCNC(=O)N1[C@@H]2CN(C(=O)C3CCOCC3)c3ccccc3[C@@H]2[C@@H]1CO	-1
20	CO[C@@H]1CN(C)C(=O)c2ccc(NC(=O)c3cccc(F)c3)cc2OC[C@@H](C)N(C)C[C@H]1C	19
21	O=C(C[C@H]1CC[C@@H]2[C@H](COC[C@H](O)CN2S(=O)(=O)c2ccc(Cl)cc2)O1)N[C@H]1CCN(Cc2ccccc2)C1	2
22	O=C(C[C@H]1CC[C@@H]2[C@H](COC[C@@H](O)CN2C(=O)c2cnccn2)O1)NCc1ccccc1	-3
23	CN1C(=O)c2cc(NC(=O)c3cnccn3)ccc2OC[C@H]2O[C@@H](CC(=O)NC3CCC3)CC[C@@H]21	-2
24	Cc1ccccc1S(=O)(=O)N1C[C@H](O)COC[C@@H]2O[C@@H](CC(=O)N3CCC(Cc4ccccc4)CC3)CC[C@H]21	10

A few values from the results shown.
Yeast UUG start with entry 19 is entered as -1
Yeast UUG start with entry 17 is entered as -11

More structures.
#	Molecule	Yeast UUG start
25	O=C(NC[C@@H]1N[C@@H](CO)[C@H]1c1ccc(-c2cccnc2)cc1)C1CCCC1	-12
26	C[C@@H]1CN([C@@H](C)CO)C(=O)c2cccc(NC(=O)c3nc4ccccc4s3)c2O[C@@H]1CN(C)C(=O)NC1CCCCC1	13
27	Cc1noc(C)c1NC(=O)Nc1cccc2c1O[C@H](CN(C)S(=O)(=O)c1cccs1)[C@H](C)CN([C@@H](C)CO)C2=O	0
28	O=C(C1CCOCC1)N1C[C@H]2[C@@H](c3ccccc31)[C@H](CO)N2C(=O)Nc1cccc(F)c1	-10
29	CCC(=O)NC[C@H]1[C@H](c2ccc(-c3cccc(F)c3)cc2)[C@H](CO)N1C(=O)CC	21
30	COCC(=O)Nc1ccc2c(c1)OC[C@H](C)N(C(=O)c1ccccc1)C[C@@H](C)[C@@H](OC)CN(C)C2=O	30
31	C[C@@H]1CN([C@H](C)CO)C(=O)c2cc(NC(=O)Cc3cn(C)c4ccccc34)ccc2O[C@@H]1CN(C)S(=O)(=O)c1cccs1	-3
32	CCNC(=O)C[C@H]1CC[C@@H]2[C@H](COC[C@@H](O)CN2C(=O)Nc2c(C)noc2C)O1	-5
33	CC=Cc1ccc2n(c1=O)C[C@H]1[C@H](CO)[C@@H](C(=O)NCC)[C@@H]2N1S(=O)(=O)c1cn(C)cn1 (mixture of isomers)	6
34	C[C@@H]1CN([C@H](C)CO)C(=O)c2cccc(NC(=O)Nc3cccc4ccccc34)c2O[C@@H]1CN(C)Cc1ccc(C(F)(F)F)cc1	-2
35	COc1ccc(C#Cc2ccc([C@H]3[C@H](CO)N4CCCCN(C(=O)Nc5ccc(F)cc5)C[C@@H]34)cc2)cc1	27
36	CO[C@@H]1CN(C)C(=O)c2cc(NC(C)=O)ccc2OC[C@H](C)N(CC2CC2)C[C@H]1C	-12
37	CO[C@H]1CN(C)C(=O)c2ccc(NC(=O)C3CCCC3)cc2OC[C@@H](C)NC[C@@H]1C	-5
38	CO[C@H]1CN(C)C(=O)c2ccc(NC(=O)c3cnccn3)cc2OC[C@H](C)N(C(C)=O)C[C@H]1C	-2
39	COc1ccc(S(=O)(=O)Nc2ccc3c(c2)C(=O)N([C@H](C)CO)C[C@H](C)[C@H](CN(C)CC2CCCCC2)O3)cc1	-3
40	CCCNC(=O)N1C[C@H](C)[C@H](OC)CN(C)C(=O)c2cc(NS(=O)(=O)CC(F)(F)F)ccc2OC[C@@H]1C	-6
41	Cc1ccc(S(=O)(=O)Nc2ccc3c(c2)CC(=O)N([C@@H](C)CO)C[C@@H](C)[C@H](CN(C)C(=O)Nc2ccc(F)cc2)O3)cc1	9
42	CO[C@H]1CN(C)C(=O)c2cc(NC(=O)C3CCCC3)ccc2OC[C@H](C)N(C)C[C@H]1C	8
43	COc1ccccc1C#Cc1ccc([C@@H]2[C@@H](CO)N3CCCCN(CCC(F)(F)F)C[C@@H]23)cc1	20
44	CN(C)C(=O)c1ccc(-c2ccc([C@H]3[C@@H](CO)N4CCCCN(S(C)(=O)=O)C[C@H]34)cc2)cc1	12
45	COCC#Cc1ccc([C@H]2[C@H]3CN(Cc4ccncc4)CCCCN3[C@H]2CO)cc1	38
46	CO[C@H]1CN(C)C(=O)c2ccc(NC(=O)C3CC3)cc2OC[C@@H](C)N(Cc2cccnc2)C[C@@H]1C	-16
47	C[C@@H]1CN([C@H](C)CO)C(=O)c2cc(NC(=O)C3CCCCC3)ccc2O[C@@H]1CN(C)S(=O)(=O)c1ccc(F)cc1	13
48	CO[C@@H]1CN(C)C(=O)c2cc(NC(=O)C3CCC3)ccc2OC[C@@H](C)N(CC2CCCCC2)C[C@@H]1C	-14
49	COc1ccc(-c2ccc3c(c2)[C@H]2[C@H](CCN2C(=O)CN2CCOCC2)[C@H](CO)N3)cc1	1
50	C[C@@H]1CN([C@H](C)CO)C(=O)c2cc(NC(=O)C3CC3)ccc2O[C@H]1CN(C)Cc1ccc(-c2ccccc2)cc1	1
51	CCCNC(=O)C[C@H]1CC[C@H]2[C@H](COc3ccc(NC(=O)Nc4c(C)noc4C)cc3C(=O)N2C)O1	14
52	C[C@H](CO)N1C[C@H](C)[C@@H](CN(C)Cc2ccc3c(c2)OCO3)Oc2ccc(NC(=O)Nc3ccccc3)cc2CC1=O	17
53	COc1ccc(CN(C)C[C@@H]2Oc3ccc(NC(=O)NC4CCCCC4)cc3C(=O)N([C@H](C)CO)C[C@H]2C)cc1	14
54	N#Cc1cccc(-c2ccc([C@H]3[C@@H](CO)N4CCCCN(S(=O)(=O)c5ccccc5)C[C@H]34)cc2)c1	-6
55	CNC[C@H]1Oc2ccc(NC(=O)Nc3ccccc3)cc2CC(=O)N([C@H](C)CO)C[C@@H]1C	-2
56	CO[C@@H]1CN(C)C(=O)c2cc(NC(=O)C3CC3)ccc2OC[C@H](C)N(Cc2nccs2)C[C@H]1C	13
57	O=C(c1ccccc1F)N1C[C@H]2[C@@H](c3ccccc31)[C@H](CO)N2C(=O)c1ccccc1	-4
58	COc1ccc(S(=O)(=O)Nc2cccc3c2O[C@H](CN(C)CC2CC2)[C@H](C)CN([C@@H](C)CO)C3=O)cc1	7
59	CCCNC(=O)N1[C@H](CO)[C@@H](c2ccccc2)[C@@H]1CNC(=O)c1ccc(F)cc1	1
60	COCC(=O)N1CCCCN2[C@H](C1)[C@H](c1ccc(C#Cc3ccccc3)cc1)[C@@H]2CO	-2

Results in sequence from the entries so far.
Nos. 50–55 in Yeast UUG start, in turn: 1, 14, 17, 14, -6, -2

Pulled by structure from the list above (3):
#	Molecule	Yeast UUG start
7	COc1ccc(CN(C)C[C@@H]2Oc3ccc(NS(=O)(=O)c4cn(C)cn4)cc3CC(=O)N([C@H](C)CO)C[C@H]2C)cc1	15
21	O=C(C[C@H]1CC[C@@H]2[C@H](COC[C@H](O)CN2S(=O)(=O)c2ccc(Cl)cc2)O1)N[C@H]1CCN(Cc2ccccc2)C1	2
22	O=C(C[C@H]1CC[C@@H]2[C@H](COC[C@@H](O)CN2C(=O)c2cnccn2)O1)NCc1ccccc1	-3

The list continues.
#	Molecule	Yeast UUG start
61	COc1ccc(CN2[C@H](CO)[C@@H]3c4ccccc4N(C(=O)CC(F)(F)F)C[C@@H]32)cc1	-3
62	COCC(=O)NC[C@H]1[C@H](c2ccccc2)[C@H](CO)N1C(C)=O	13
63	COc1ccccc1C(=O)N1C[C@H]2[C@@H](c3ccccc31)[C@@H](CO)N2C(=O)Nc1ccccc1	12
64	COCC(=O)N1CCCCN2[C@H](C1)[C@@H](c1ccc(-c3ccc(OC)cc3)cc1)[C@@H]2CO	-1
65	C[C@@H]1CN([C@H](C)CO)C(=O)c2cccc(NC(=O)Nc3ccc4c(c3)OCO4)c2O[C@@H]1CN(C)S(=O)(=O)c1cn(C)cn1	8
66	COc1ccc(S(=O)(=O)N2CC[C@@H]3[C@@H](CO)N(C)c4ccc(-c5ccc(F)cc5)cc4[C@@H]32)cc1	6
67	COc1ccccc1NC(=O)N1CCCCN2[C@H](CO)[C@@H](c3ccc(-c4ccccc4)cc3)[C@@H]2C1	-3
68	CO[C@@H]1CN(C)C(=O)c2cc(NC(=O)Nc3ccccc3F)ccc2OC[C@@H](C)N(S(=O)(=O)CC(F)(F)F)C[C@H]1C	0
69	C[C@H]1CN([C@@H](C)CO)C(=O)Cc2cc(NC(=O)CCN3CCOCC3)ccc2O[C@@H]1CN(C)C	-2
70	C[C@H](O)C#Cc1ccc([C@@H]2[C@H]3CN(C(=O)c4ccc(F)cc4)CCCCN3[C@H]2CO)cc1	2
71	CN1c2ccc(-c3ccccc3F)cc2[C@@H]2[C@@H](CCN2S(=O)(=O)c2ccccc2)[C@H]1CO	5
72	O=C(NC[C@H]1[C@@H](c2ccccc2)[C@@H](CO)N1C(=O)C1CCC1)NC1CCCC1	15
73	COc1cccc(-c2ccc3c(c2)[C@H]2[C@H](CCN2S(=O)(=O)c2ccccc2OC)[C@@H](CO)N3C)c1	-15
74	COc1ccc(S(=O)(=O)N(C)C[C@H]2OCc3cnnn3CCCC(=O)N([C@@H](C)CO)C[C@@H]2C)cc1	-1
75	C[C@@H](O)C#Cc1ccc([C@@H]2[C@H]3CN(C(=O)Nc4ccccc4)CCCCN3[C@H]2CO)cc1	3
76	O=C(Nc1ccc(F)cc1)N1C[C@@H]2[C@H](c3ccccc31)[C@H](CO)N2C(=O)Cc1ccccn1	15
77	C[C@H](CO)N1C[C@H](C)[C@H](CN(C)Cc2ccncc2)Oc2ccc(NC(=O)Cn3cnnn3)cc2C1=O	-9
78	Cc1noc(C)c1NC(=O)N(C)C[C@H]1Oc2ccc(NC(=O)c3ccncc3)cc2C(=O)N([C@@H](C)CO)C[C@H]1C	-30
79	C[C@H]1CN([C@@H](C)CO)C(=O)Cc2cc(NC(=O)c3ccncc3)ccc2O[C@H]1CN(C)Cc1ccc(Oc2ccccc2)cc1	6
80	CO[C@@H]1CN(C)C(=O)c2cc(NC(=O)Nc3ccccc3F)ccc2OC[C@H](C)N(C)C[C@@H]1C	-15
81	O=C(C1CCCCC1)N1C[C@@H]2[C@H](c3ccccc31)[C@@H](CO)N2Cc1ccccc1Cl	-8
82	COc1ccc(C#Cc2ccc([C@H]3[C@@H](CO)N4CCCCN(C)C[C@H]34)cc2)cc1	-9
83	COc1ccc(NC(=O)N(C)C[C@H]2Oc3c(NC(=O)NC(C)C)cccc3C(=O)N([C@@H](C)CO)C[C@H]2C)cc1	-8
84	CCCC(=O)Nc1ccc2c(c1)OC[C@@H](C)N(Cc1nccs1)C[C@H](C)[C@H](OC)CN(C)C2=O	-1
85	CN1CCN(C(=O)C[C@H]2CC[C@H]3[C@@H](COC[C@H](O)CN3CC3CCCCC3)O2)CC1	-27
86	O=C(c1ccccc1)N1CC[C@H]2[C@H](CO)Nc3ccc(-c4ccccc4F)cc3[C@H]21	-3
87	O=C(Nc1cc(F)ccc1F)N1C[C@H]2[C@@H](c3ccccc31)[C@@H](CO)N2Cc1cccnc1	-15
88	CC(C)NC(=O)N(C)C[C@@H]1Oc2ccc(NC(=O)Nc3ccccc3)cc2CC(=O)N([C@@H](C)CO)C[C@H]1C	-9

The list is partial; count on the stated rates, not on these rows.
